Bioassay records: PubChem BioAssay, National Center for Advancing Translational Sciences (NCATS)
VACV mCherry inh: vaccinia inhibition (mCherry reporter) | Potency, µM (highest dose often 36.5 µM), without a hit: top-dose activity change, negative = inhibition, actives largely listed as inhibitors | 310,000 tested, 0.63% active | Vaccinia virus mCherry reporter infection, fluorescence; about a quarter of the inactives have no number; active = well fitted inhibition curve with a large enough effect; inconclusive = small, poorly fitted or top-dose-only effect; inactive = no such curve, though single readings can be large or run the other way; tested in A549 cells; further: nearly all actives have a fitted effect of over 35% in size; inactives centre near -10
Vaccinia Venus: vaccinia inhibition (Venus reporter). Vaccinia virus Venus reporter expression, fluorescence. Potency, µM (highest dose often 36.5 µM), without a hit: at the highest dose activity change, negative = inhibition, actives largely listed as inhibitors. 330,000 tested, 0.46% active; active means well fitted inhibition curve with a large enough effect; inconclusive means small, poorly fitted or top-dose-only effect; inactive means no such curve, though single readings can be large or run the other way; tested in A549 cells; further: nearly all actives have a fitted effect of over 30% in size; inactives centre near -10
Numbers without * were called inactive; & = joins results of further samples; [ ] = dose if it differs, or a comment. On the % scale 0 is the no-effect control and ±100 the full control effect; potency means the concentration at half of the fitted maximal effect.

Screening COc1ccc(O)c(CN2CCC3(CCC(CNC(=O)C4CCCO4)O3)CC2)c1 (configuration not stated) returned VACV mCherry inh -3% and Vaccinia Venus 14%.
Screening O=C(NCCCN1CCOCC1)c1ccccc1NS(=O)(=O)c1ccc(Br)cc1 returned VACV mCherry inh -13% and Vaccinia Venus -14%.
Cc1ccccc1CN1CC2=C(CCN(Cc3ccccc3)C2=O)N2CCN=C12 was read as VACV mCherry inh -25% and Vaccinia Venus -8%.
Screening C=CCOC(=O)C1=C(C)NC(C)=C(C(=O)OCC=C)C1c1ccc(C)o1 returned VACV mCherry inh -27% and Vaccinia Venus inconclusive.
CC12CC3OC3CC1CCC1C2CCC2(C)C1CCC21OCCO1 (configuration not stated) was read as VACV mCherry inh -7% and Vaccinia Venus -6%.
For O=C(CN1C(=O)c2ccccc2S1(=O)=O)N1CCN(c2cccc(Cl)c2)CC1 the results were Vaccinia Venus -10%.
CCOc1ccccc1NC(=O)c1c(NC(=O)c2ccncc2)sc2c1CCC(C(C)(C)C)C2 (configuration not stated) was read as VACV mCherry inh inactive and Vaccinia Venus 4%.
`COC(=O)c1ccc(N2CCOCC2)c(NC(=O)c2ccc3c(c2)OCCO3)c1` gave VACV mCherry inh inactive and Vaccinia Venus -13%.
Screening Cn1c(=O)c(Nc2ccc(O)cc2)c2c3c(cccc31)C(=O)c1ccccc1-2 returned VACV mCherry inh -28% and Vaccinia Venus -20%.
`C=CCOC(=O)C1=C[C@H](c2csc3ccccc23)C[C@H](OCc2ccc(CO)cc2)O1` gave VACV mCherry inh -8% and Vaccinia Venus -19%.
Screening CCC(=O)N1CCC(C(N)=O)(N2CCCCC2)CC1 returned VACV mCherry inh inactive and Vaccinia Venus -12%.
`CC(C)Oc1ccc(CN2CCCC(CO)(Cc3ccc(F)cc3)C2)cc1` (configuration not stated) gave VACV mCherry inh -10% and Vaccinia Venus -17%.
Screening CCOc1ccc(N(CC(=O)NCc2ccco2)S(=O)(=O)c2ccc(OC)c(OC)c2)cc1 returned Vaccinia Venus inconclusive.
Screening O=Cc1c(N2CCCCCC2)nc2ccccn2c1=O returned VACV mCherry inh -26% and Vaccinia Venus -16%.
C/C(=N\OC(=O)c1ccc(Cl)cc1)c1sc(-c2ccccc2)nc1C was read as VACV mCherry inh -8% and Vaccinia Venus -11%.
Screening C=CCNc1nc(SCC=C)nc2ccsc12 returned VACV mCherry inh -23% and Vaccinia Venus -26%.
For CC1(C)CC(=O)c2cnc(NC3CC3)nc2C1 the results were VACV mCherry inh inactive and Vaccinia Venus 0%.
Screening CN1CCN(C(=O)c2ccccc2NC(=O)c2ccc(C(C)(C)C)cc2)CC1 returned VACV mCherry inh -13% and Vaccinia Venus -10%.
`COc1ccc(CNC(=O)c2cc3cc4ccc(C)cc4nc3o2)cc1` gave VACV mCherry inh -5% and Vaccinia Venus 3%.
Screening Cc1cc(C)nc(SCC(N)=O)n1 returned VACV mCherry inh inactive and Vaccinia Venus 0%.
`CCCCOc1ccc(C(=O)NCC(=O)N2CC=C(c3ccccc3)CC2)cc1` gave VACV mCherry inh -19% and Vaccinia Venus 3%.
`O=C(CCCOC(=O)c1ccc(O)cc1O)c1ccc(Br)cc1` gave VACV mCherry inh -12% and Vaccinia Venus inconclusive.
Screening C/C=C/C=N/NC(=O)CN(c1ccc(Br)cc1)S(=O)(=O)c1ccccc1 returned VACV mCherry inh -6% and Vaccinia Venus -17%.
For Cc1cc(NC(=O)Nc2cc(Cl)sc2Cl)no1 the results were VACV mCherry inh inactive and Vaccinia Venus -20%.
O=C(CC1CCCCC1)NCc1ccc(Cl)cc1 was read as VACV mCherry inh inactive and Vaccinia Venus -14%.
For COc1ccc(CCNC(=O)c2sc(=S)n(C)c2N)cc1 the results were VACV mCherry inh -14% and Vaccinia Venus -5%.
`CC(C)(C)NC(=O)CN(C(=O)CSc1nnc(COc2ccccc2)o1)c1cccc(F)c1` gave VACV mCherry inh -3% and Vaccinia Venus -13%.
For O=C(NCc1cccs1)c1ccc(Cn2c(SCc3ccccc3)nc3cccnc32)cc1 the results were VACV mCherry inh -5% and Vaccinia Venus -2%.
Cc1c(C(=O)NCc2ccc3c(c2)OCO3)sc2nc(-c3ccccc3)cn12 was read as VACV mCherry inh -17% and Vaccinia Venus -21%.
Screening CCOc1ccc(Oc2cc(C)nc(SC)n2)nn1 returned VACV mCherry inh -7% and Vaccinia Venus -3%.
CC(=O)OC(C(=O)NCc1ccco1)c1cccnc1 (configuration not stated) was read as VACV mCherry inh -6% and Vaccinia Venus -7%.
Screening C[C@H](CO)N1C[C@H](C)[C@H](CN(C)C(=O)Nc2ccc(C(C)(C)C)cc2)OCc2cnnn2CCCC1=O returned VACV mCherry inh -6% and Vaccinia Venus -18%.
Screening COc1ccccc1N1CCN(CCCCCCOc2ccc(F)cc2)CC1 returned VACV mCherry inh -2% and Vaccinia Venus -21%.
`COC(=O)c1ccc(CSc2nnc3sc4ccccc4n23)o1` gave VACV mCherry inh -14%[1.46 µM] and Vaccinia Venus -20%.
For O=C(CC12CC3CC(CC(C3)C1)C2)NC(=S)Nc1ccc(CN2CCOCC2)cc1 the results were VACV mCherry inh inactive and Vaccinia Venus -15%.
`COC(=O)c1ccc(NC(=O)Nc2ccccc2F)cc1` gave VACV mCherry inh -11% and Vaccinia Venus -10%.
Screening Cc1noc(C)c1COc1ccc(C(=O)Nc2ccccc2)cc1 returned VACV mCherry inh -15% and Vaccinia Venus -9%.
Cc1ccc(C(=O)N/N=C\c2ccc3c(c2)OCO3)cn1 was read as VACV mCherry inh inactive and Vaccinia Venus -10%.
CC(C)CC(=O)Nc1nc2ccc(S(=O)(=O)N3CCOCC3)cc2s1 was read as VACV mCherry inh inconclusive and Vaccinia Venus inconclusive.
Screening Cc1ccc(Cn2c(C)c(C(=O)NCc3ccc4c(c3)OCO4)sc2=O)cc1 returned VACV mCherry inh inactive and Vaccinia Venus 1%.

The last 4 compounds of the section above lead into the next:
Screening Cc1noc(C)c1COc1ccc(C(=O)Nc2ccccc2)cc1 returned VACV mCherry inh -15% and Vaccinia Venus -9%.
Cc1ccc(C(=O)N/N=C\c2ccc3c(c2)OCO3)cn1 was read as VACV mCherry inh inactive and Vaccinia Venus -10%.
CC(C)CC(=O)Nc1nc2ccc(S(=O)(=O)N3CCOCC3)cc2s1 was read as VACV mCherry inh inconclusive and Vaccinia Venus inconclusive.
Screening Cc1ccc(Cn2c(C)c(C(=O)NCc3ccc4c(c3)OCO4)sc2=O)cc1 returned VACV mCherry inh inactive and Vaccinia Venus 1%.
Cc1ccccc1OCc1nc2ccccc2c(=O)n1N was read as Vaccinia Venus -22%.
Nc1ccn([C@@H]2O[C@H](CNCc3cnc(N4CCOCC4)nc3)[C@@H](O)[C@H]2O)c(=O)n1 was read as VACV mCherry inh inactive and Vaccinia Venus -5%.
For CCC(=O)N1CCc2cc(OC)c(OC)cc2C1COc1ccccc1OC (configuration not stated) the results were VACV mCherry inh -11%&-12% and Vaccinia Venus -12%&-13%.
`Cc1ccc(C(=O)N2CCC(C(=O)NC3CCCC3)CC2)cc1` gave VACV mCherry inh -2% and Vaccinia Venus -4%.
For COC(=O)c1scc(-c2ccc(C)cc2)c1S(=O)(=O)N1CCN(c2ccc(F)cc2)CC1 the results were VACV mCherry inh -2% and Vaccinia Venus 0%.
COc1cc(Cl)c(C)cc1NC(=O)Cn1ncc2c(=O)oc3ccccc3c21 was read as VACV mCherry inh -18% and Vaccinia Venus -14%.
Screening CCOC(=O)N1CCN(C(=O)C(NS(=O)(=O)c2cccc3nsnc23)c2ccccc2)CC1 (configuration not stated) returned VACV mCherry inh -6% and Vaccinia Venus -12%.
Screening Cc1ccsc1CN(C)C(=O)CCc1nnc(COc2ccccc2)o1 returned VACV mCherry inh -1% and Vaccinia Venus -7%.
COc1cccc(CNC(=O)c2ccc(CS(=O)Cc3ccc(Cl)cc3)o2)c1 (configuration not stated) was read as VACV mCherry inh -12% and Vaccinia Venus -7%.
`Cc1c(C(=O)NCc2cccc(Br)c2)oc2ccc3c(c12)C(=O)CC(C)(C)O3` gave VACV mCherry inh -11% and Vaccinia Venus -5%.
CC(C)c1ccc(NC(=O)c2ccc(NC3=NC4CS(=O)(=O)CC4S3)cc2)cc1 (configuration not stated) was read as VACV mCherry inh inactive and Vaccinia Venus -10%.
Screening CCCn1c(=O)c2ccccc2n2c(SCC(=O)/C(C#N)=C(\C)N)nnc12 returned VACV mCherry inh inactive and Vaccinia Venus -3%.
CCN(CC)C(=O)CSc1nc(O)cc(=O)n1-c1ccccc1OC was read as VACV mCherry inh -5% and Vaccinia Venus -12%.
`O=C(O)[C@H]1CCCC[C@H]1C(=O)Nc1ccc(S(=O)(=O)N2CCOCC2)cc1` gave VACV mCherry inh 5% and Vaccinia Venus 1%.
Screening Cc1cccn2c(=O)c(/C=C(\C#N)C(=O)NC3CCS(=O)(=O)C3)c(Oc3ccccc3Cl)nc12 (configuration not stated) returned VACV mCherry inh -24% and Vaccinia Venus -15%.
Screening COc1ccc(-c2nc3cc([N+](=O)[O-])ccc3o2)cc1OC returned VACV mCherry inh -3% and Vaccinia Venus -5%.
`CC(=Nc1ccc(F)cc1)c1c(O)n(C)c(=O)[nH]c1=O` gave VACV mCherry inh -14% and Vaccinia Venus -2%.
O=C(COC(=O)c1ccc(F)cc1F)NC1CC1 was read as VACV mCherry inh inactive and Vaccinia Venus 4%.
For CN(CC(=O)Nc1ccccc1Cl)C(=O)Cn1cnc2ccccc2c1=O the results were VACV mCherry inh inactive and Vaccinia Venus 1%.
For COC(=O)c1ccccc1OC(=O)c1ccc(Br)o1 the results were Vaccinia Venus 12%.
Screening O=C(Nc1ccc2c(c1)C(=O)N(c1ccccc1)C2=O)c1cccs1 returned VACV mCherry inh -12% and Vaccinia Venus -28%.
Screening COc1ccc(/C=C/C(=O)OCC(=O)N2CCCCCC2)cc1OC returned VACV mCherry inh -8% and Vaccinia Venus 16%.
For C[C@H]1C=C(C(=O)O)O[C@@H](OCc2ccc(CO)cc2)C1 the results were VACV mCherry inh -17% and Vaccinia Venus 13%.
Screening CC(NC(=O)CSc1nc(=O)cc(N)n1-c1ccccc1)c1ccccc1 (configuration not stated) returned VACV mCherry inh -10% and Vaccinia Venus -14%.
Screening N/C(=N\NC(=O)c1sccc1OCc1ccc(Cl)cc1Cl)c1ccccn1 returned VACV mCherry inh inconclusive and Vaccinia Venus inconclusive.
For C/C(Cc1ccccc1)=N\NC(=O)CCCCCC(=O)N/N=C(\C)Cc1ccccc1 the results were VACV mCherry inh -6% and Vaccinia Venus -3%.
For CN(C)S(=O)(=O)c1cccc(NS(=O)(=O)c2ccc(Cl)s2)c1 the results were VACV mCherry inh -9% and Vaccinia Venus -6%.
For c1ccc(OCCNc2ccn3nc(-c4cccs4)cc3n2)cc1 the results were VACV mCherry inh -17% and Vaccinia Venus -8%.
Screening COc1ccc(N(CC(=O)NC2CCCC2)C(=O)Cn2nnc(-c3ccc(F)cc3)n2)cc1 returned VACV mCherry inh inactive and Vaccinia Venus 0%.
`O=C1CCCc2nc3c(cc21)C(O)Oc1c-3ccc2ccccc12` (configuration not stated) gave VACV mCherry inh -4% and Vaccinia Venus -5%.
For CC(C)(C)c1ccc(C(=O)Nc2onc3c2CCCC3)cc1 the results were VACV mCherry inh -1% and Vaccinia Venus -12%.
Screening Cc1ccc(Cl)cc1N1CCN(C(=O)CCNS(=O)(=O)c2ccc3c(c2)CCN3C(=O)C2CC2)CC1 returned VACV mCherry inh -7% and Vaccinia Venus -6%.
For COc1ccc([C@H](OC)[C@@]2(Cc3ccc(O)cc3)N=C(N)N(C)C2=O)cc1 the results were VACV mCherry inh inactive and Vaccinia Venus -6%.
Screening COc1ccc(CN(C)C(=O)CCN(c2ccccc2)S(=O)(=O)c2ccc(C)cc2)c(OC)c1 returned VACV mCherry inh inconclusive and Vaccinia Venus inconclusive.
Screening C[C@@H]1COc2cc(N3CCSCC3)ccc2S(=O)(=O)N1 returned VACV mCherry inh 0% and Vaccinia Venus 4%.
N=c1c2c(-c3ccccc3)c(-c3ccccc3)n(Cc3ccco3)c2ncn1CCCn1ccnc1 was read as VACV mCherry inh -21% and Vaccinia Venus inconclusive.
CCOC(=O)c1c(C)n(CCOc2ccccc2)c2ccc(O)cc12 was read as VACV mCherry inh 1% and Vaccinia Venus -5%.
Cc1nc2ccc(Cl)cc2nc1C was read as VACV mCherry inh -10% and Vaccinia Venus -8%.
CN(CC(=O)Nc1c(Cl)cccc1Cl)C(=O)Cc1ccc(S(=O)(=O)N2CCOCC2)s1 was read as VACV mCherry inh -7% and Vaccinia Venus -6%.
Screening O=C(CSc1nnc(-c2ccncc2)n1-c1ccccc1)Nc1ccc(C(=O)O)cc1 returned VACV mCherry inh inactive and Vaccinia Venus 5%.

Sorted by molecular weight (lowest first): part of the list above.
Cc1nc2ccc(Cl)cc2nc1C was read as VACV mCherry inh -10% and Vaccinia Venus -8%.
For CC(C)(C)c1ccc(C(=O)Nc2onc3c2CCCC3)cc1 the results were VACV mCherry inh -1% and Vaccinia Venus -12%.
Screening C[C@@H]1COc2cc(N3CCSCC3)ccc2S(=O)(=O)N1 returned VACV mCherry inh 0% and Vaccinia Venus 4%.
CCOC(=O)c1c(C)n(CCOc2ccccc2)c2ccc(O)cc12 was read as VACV mCherry inh 1% and Vaccinia Venus -5%.
Screening COc1ccc(CN(C)C(=O)CCN(c2ccccc2)S(=O)(=O)c2ccc(C)cc2)c(OC)c1 returned VACV mCherry inh inconclusive and Vaccinia Venus inconclusive.
